Screens (PubChem)
Vaccinia stage: blocks a specific stage of Vaccinia orthopoxvirus infection. Vaccinia-infected cells, mCherry/Venus stage reporter fluorescence; stronger effect = lower value; some inactives read as strong as hits. activity change (mCherry), % (test concentration not listed). 89,000 compounds, 0.01% hits;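 active = mCherry past -33% and 40 or more points under the early reporter, replicates agreeing; inconclusive = past -33% without that gap or agreement; tested in A549 cells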;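 note: scaled between vehicle wells and reference inhibitor wells; 23 nL library stock went into each well; one replicate is shown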
Vaccinia stage Venus: second read-out of Vaccinia stage, no call of its own (marks repeat the call); activity change (Venus), %; measured here: Venus reporter, other viral stage;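 negative = less Venus signal; first of two replicates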
Numbers without * were called inactive; u = inconclusive; x = no result given. The list is partial; count on the stated rates, not on these rows.

SMILES | Vaccinia stage | Vaccinia stage Venus
C[C@@H]1CCCCO[C@@H](CN(C)C(=O)Nc2ccc3c(c2)OCO3)[C@H](C)CN([C@H](C)CO)C(=O)c2cc(NC(=O)c3ccccc3)ccc2O1 | -16.7 | -13.5
CN1c2ccc(-c3ccc(F)cc3)cc2[C@H]2[C@H](CCN2C(=O)Cc2ccccn2)[C@@H]1CO | -4.8 | 1.0
CC(C)NC(=O)N(C)C[C@H]1Oc2ccc(NS(=O)(=O)c3cn(C)cn3)cc2C(=O)N([C@H](C)CO)C[C@@H]1C | 7.8 | 6.8
C[C@@H]1CN([C@@H](C)CO)C(=O)c2cc(NC(=O)Nc3cccc4ccccc34)ccc2O[C@@H](C)CCCCO[C@H]1CN(C)Cc1ccncc1 | -11.5 | -10.8
O=C(C[C@@H]1C=C[C@H](NC(=O)C2CCOCC2)[C@@H](CO)O1)Nc1ccc(-c2ccccc2)cc1 | -13.1 | -5.5
O=C(NC[C@@H]1[C@@H](c2ccccc2)[C@@H](CO)N1CC1CCCC1)c1ccccc1 | -12.6 | -2.5
C[C@@H]1CCCCO[C@@H](CN(C)C(=O)Nc2ccc(C(F)(F)F)cc2)[C@H](C)CN([C@@H](C)CO)C(=O)c2cc(N(C)C)ccc2O1 | -11.7 | -7.8
Cc1noc(C)c1S(=O)(=O)N(C)C[C@@H]1Oc2ccc(NC(=O)CCCCCC(=O)Nc3ccccc3N)cc2CC(=O)N([C@@H](C)CO)C[C@H]1C | 4.3 | 3.9
CCC(=O)N1C[C@@H](C)[C@H](OC)CN(C)C(=O)c2ccc(NC(=O)c3cnccn3)cc2OC[C@@H]1C | -0.6 | -7.2
Cc1ccc(-c2cnc3c(c2)C(=O)N([C@@H](C)CO)C[C@H](C)[C@H](CN(C)C(=O)c2cccc(F)c2)O3)cc1 | -10.9 | -1.9
COc1ccc(NC(=O)Nc2ccc3c(c2)[C@H]2C[C@H](CC(=O)O)O[C@@H](CO)[C@H]2O3)cc1 | -3.2 | 1.6
COc1cccc(-c2ccc([C@H]3[C@@H](C#N)N(C(=O)c4ccccn4)[C@H]3CO)cc2)c1 | -23.9 | -18.8
COc1ccc(S(=O)(=O)Nc2ccc3c(c2)C(=O)N([C@H](C)CO)C[C@@H](C)[C@H](CN(C)S(=O)(=O)c2c(C)noc2C)OCCCC[C@@H](C)O3)cc1 | u | x
C[C@@H]1CCCCO[C@@H](CN(C)C(=O)Nc2ccccc2)[C@H](C)CN([C@@H](C)CO)C(=O)c2cc(NS(=O)(=O)c3ccc(Cl)cc3)ccc2O1 | 1.7 | -1.8
CC(C)NC(=O)N1[C@H](CO)[C@H](c2ccccc2-c2ccc(F)cc2)[C@@H]1C#N | 9.9 | 12.0
O=C(Cc1ccccc1)N[C@@H]1CC[C@@H](CC(=O)N2CCOCC2)O[C@@H]1CO | 2.5 | 2.4
C[C@H](CO)N1C[C@H](C)[C@@H](CN(C)S(=O)(=O)c2ccccc2)Oc2ccc(N(C)C)cc2CC1=O | 3.4 | -0.2
CC(C)CC#Cc1ccc([C@@H]2[C@H]3CN(C(=O)c4cnccn4)CC(=O)N3[C@H]2CO)cc1 | -1.1 | -2.0
C[C@H](CO)N1C[C@H](C)[C@H](CN(C)C(=O)C2CCCCC2)Oc2ncc(Br)cc2C1=O | 7.1 | 11.0
CCC(=O)N1C[C@@H](C)[C@H](OC)CN(C)C(=O)c2ccc(NC(=O)Nc3ccccc3)cc2OC[C@@H]1C | -12.9 | -8.4
COc1cccc(NC(=O)N(C)C[C@H]2Oc3cc(-c4ccccc4OC)ccc3S(=O)(=O)N([C@H](C)CO)C[C@H]2C)c1 | u | x
O=C(CC1CC1)N1CC2(C1)[C@@H](c1ccccc1)[C@H](CO)N2C(=O)c1ccccn1 | 3.0 | -2.1
O=C([C@@H]1[C@@H](CO)[C@@H]2Cn3c(ccc(-c4ccccc4F)c3=O)[C@H]1N2C(=O)C1CCC1)N1CCCCC1 | 16.6 | 11.5
CCC(=O)Nc1ccc2c(c1)OC[C@H](C)N(C(=O)COC)C[C@H](C)[C@H](OC)CN(C)C2=O | 6.0 | 5.9
CO[C@H]1CN(C)C(=O)c2ccc(NS(C)(=O)=O)cc2OC[C@@H](C)N(C(=O)C2CCCC2)C[C@@H]1C | -2.7 | -3.0

Reformatted tab-delimited: part of the list above.
smiles	Vaccinia stage	Vaccinia stage Venus
Cc1ccc(-c2cnc3c(c2)C(=O)N([C@@H](C)CO)C[C@H](C)[C@H](CN(C)C(=O)c2cccc(F)c2)O3)cc1	-10.9	-1.9
C[C@@H]1CCCCO[C@@H](CN(C)C(=O)Nc2ccc3c(c2)OCO3)[C@H](C)CN([C@H](C)CO)C(=O)c2cc(NC(=O)c3ccccc3)ccc2O1	-16.7	-13.5
CCC(=O)Nc1ccc2c(c1)OC[C@H](C)N(C(=O)COC)C[C@H](C)[C@H](OC)CN(C)C2=O	6.0	5.9
C[C@H](CO)N1C[C@H](C)[C@@H](CN(C)S(=O)(=O)c2ccccc2)Oc2ccc(N(C)C)cc2CC1=O	3.4	-0.2
COc1ccc(NC(=O)Nc2ccc3c(c2)[C@H]2C[C@H](CC(=O)O)O[C@@H](CO)[C@H]2O3)cc1	-3.2	1.6
CN1c2ccc(-c3ccc(F)cc3)cc2[C@H]2[C@H](CCN2C(=O)Cc2ccccn2)[C@@H]1CO	-4.8	1.0

Continuation.
SMILES | Vaccinia stage | Vaccinia stage Venus
COc1ccc(NC(=O)N(C)C[C@@H]2Oc3c(NC(=O)c4ccc(-c5nccs5)cc4)cccc3C(=O)N([C@@H](C)CO)C[C@H]2C)cc1 | 10.9 | 5.6
C[C@@H]1CN([C@@H](C)CO)C(=O)c2cccc(NC(=O)Nc3ccc(F)cc3)c2O[C@H]1CN(C)S(C)(=O)=O | 4.4 | 0.2
O=C(C[C@H]1C[C@@H]2c3cc(NC(=O)c4cccnc4)ccc3O[C@@H]2[C@H](CO)O1)NCC1CC1 | 12.6 | 8.0
CC(C)CC#Cc1cnc2c(c1)C(=O)N([C@H](C)CO)C[C@H](C)[C@H](CN(C)C(=O)c1ccccc1F)O2 | 0.1 | 1.6
CC(C)NC(=O)N(C)C[C@@H]1OCc2cn(nn2)CCCC(=O)N([C@@H](C)CO)C[C@H]1C | 10.5 | 10.3
CCNC(=O)[C@H]1[C@H](CO)[C@H]2Cn3c(ccc(-c4cccc(F)c4)c3=O)[C@H]2N1Cc1cc(F)ccc1F | 2.0 | -6.0
C[C@@H]1CN([C@@H](C)CO)C(=O)c2cc(NC(=O)Nc3ccc(C(F)(F)F)cc3)ccc2O[C@@H](C)CCCCO[C@H]1CN(C)Cc1ccc(Cl)c(Cl)c1 | 0.3 | 11.3
C[C@H](O)C#Cc1ccc([C@H]2[C@H](CO)N3CCCCN(C(=O)c4ccc(F)cc4)C[C@@H]23)cc1 | 36.7 | 2.5
Cc1noc(C)c1NC(=O)Nc1ccc2c(c1)C(=O)N([C@H](C)CO)C[C@@H](C)[C@H](CN(C)S(C)(=O)=O)O2 | 26.4 | 19.2
C[C@H](CO)N1C[C@H](C)[C@H](CN(C)C(=O)Nc2ccc(C(F)(F)F)cc2)Oc2c(NC(=O)Nc3ccc(F)cc3)cccc2C1=O | u | x
C[C@@H]1CN([C@H](C)CO)C(=O)c2cc(NC(=O)Nc3ccccc3)ccc2O[C@@H](C)CCCCO[C@@H]1CN(C)S(=O)(=O)c1ccccc1 | 18.2 | 3.6
COc1cc2c(cc1OC)CN(C(=O)[C@@H]1[C@H]3C(=O)O[C@H](c4ccccc4)[C@H](c4ccccc4)N3[C@H](c3ccc(OCCO)cc3)[C@@]13C(=O)Nc1ccc(C#CC4(O)CCCCCC4)cc13)CC2 | 8.8 | 14.3
CCCN(C)C[C@H]1Oc2cc(-c3ccccc3)ccc2S(=O)(=O)N([C@@H](C)CO)C[C@H]1C | -5.9 | -15.4
C[C@H](CO)N1C[C@H](C)[C@H](CN(C)C)Oc2ccc(NC(=O)C3CCCCC3)cc2C1=O | 0.5 | 2.2
COc1ccc2c3c([nH]c2c1)[C@H](CO)N(C(=O)c1cnccn1)CC31CN(S(=O)(=O)c2ccccc2)C1 | -0.3 | -7.5
C[C@@H]1CN([C@H](C)CO)C(=O)Cc2cc(NC(=O)CCC(F)(F)F)ccc2O[C@H]1CN(C)CC1CCCCC1 | -14.1 | -12.3
CS(=O)(=O)N1[C@@H]2Cn3c(ccc(-c4cccc(F)c4)c3=O)[C@H]1[C@@H](C(=O)N1CCCCC1)[C@@H]2CO | 3.2 | 0.0
C[C@@H]1CCCCO[C@@H](CN(C)C(=O)c2ccccc2)[C@H](C)CN([C@H](C)CO)C(=O)c2cc(N(C)C)ccc2O1 | -30.6 | -19.0
O=C(C[C@H]1C=C[C@H](NC(=O)C2CCC2)[C@H](CO)O1)NCCCN1CCOCC1 | -0.7 | -4.4
COCC#Cc1ccc2c(c1)O[C@@H](CN(C)CC1CCOCC1)[C@@H](C)CN([C@H](C)CO)S2(=O)=O | 16.5 | 7.6
C[C@@H]1CN([C@@H](C)CO)C(=O)c2cc(C#Cc3ccccc3)cnc2O[C@H]1CN(C)C(=O)c1ccccc1 | -33.7 | -28.8
CS(=O)(=O)N1C[C@@H](O)COC[C@@H]2O[C@H](CC(=O)NC3Cc4ccccc4C3)CC[C@H]21 | 16.9 | 9.0
O=C(NCc1ccccn1)[C@H]1[C@H](CO)[C@H]2Cn3c(ccc(C4=CCCC4)c3=O)[C@@H]1N2Cc1cccnc1 | 9.1 | 14.4
Cc1ccc(S(=O)(=O)N[C@H]2CC[C@H](CC(=O)NCCCN(C)C)O[C@H]2CO)cc1 | 12.1 | 5.0
O=C(C1CCCC1)N1C[C@@H]2[C@H](c3ccccc31)[C@@H](CO)N2C(=O)Nc1cccc(F)c1 | 4.2 | 5.4

Continued, starting with the last 2 of the part before.
SMILES | Vaccinia stage | Vaccinia stage Venus
Cc1ccc(S(=O)(=O)N[C@H]2CC[C@H](CC(=O)NCCCN(C)C)O[C@H]2CO)cc1 | 12.1 | 5.0
O=C(C1CCCC1)N1C[C@@H]2[C@H](c3ccccc31)[C@@H](CO)N2C(=O)Nc1cccc(F)c1 | 4.2 | 5.4
CC(C)NC(=O)Nc1ccc2c(c1)C(=O)N([C@@H](C)CO)C[C@@H](C)[C@@H](CN(C)C(=O)Nc1ccc3c(c1)OCO3)OCCCC[C@H](C)O2 | 30.1 | 16.3
C[C@@H]1CN([C@H](C)CO)C(=O)c2cccc(NC(=O)c3nc4ccccc4s3)c2O[C@@H]1CN(C)C(=O)Nc1ccc2c(c1)OCO2 | 4.3 | -2.1
CCCNC(=O)N(C)C[C@H]1Oc2ncc(C#CCC(C)C)cc2C(=O)N([C@@H](C)CO)C[C@@H]1C | -6.2 | -16.3
C[C@@H]1CN([C@H](C)CO)C(=O)c2cc(N(C)C)ccc2O[C@@H](C)CCCCO[C@@H]1CN(C)C(=O)Nc1ccccc1 | 9.2 | 7.8
C[C@H](CO)N1C[C@H](C)[C@@H](CN(C)C(=O)Nc2ccc3c(c2)OCO3)Oc2ccc(NC(=O)Cc3ccccc3)cc2C1=O | 24.8 | 14.5
CC(C)C#Cc1ccc([C@H]2[C@@H](C#N)N(C(=O)C3CC3)[C@H]2CO)cc1 | -14.4 | -20.8
CO[C@@H]1CC[C@@H]2CCN(C)C(=O)CCCN(C)C(=O)c3cc(C#N)ccc3OC[C@@H]1O2 | 9.3 | 3.1
CN(C)C(=O)C[C@H]1CC[C@@H]2[C@H](COC[C@@H](O)CN2C(=O)C2CCOCC2)O1 | 7.7 | 9.4
C[C@H]1CN([C@@H](C)CO)C(=O)Cc2cc(NS(=O)(=O)c3cn(C)cn3)ccc2O[C@H]1CN(C)Cc1ccncc1 | 11.5 | 5.2
C[C@@H]1CN([C@H](C)CO)C(=O)c2cccc(NC(=O)c3cnccn3)c2O[C@@H]1CN(C)Cc1ccc(C(F)(F)F)cc1 | -7.6 | -6.2
O=C(Cc1ccncc1)NCC[C@H]1CC[C@H](NC(=O)Nc2ccc(Cl)cc2)[C@@H](CO)O1 | 9.5 | 9.2
CO[C@@H]1CN(C)C(=O)c2cc(NC(=O)C3CCCC3)ccc2OC[C@H](C)N(CCC(F)(F)F)C[C@H]1C | -27.0 | -17.6
COC(=O)C[C@H]1C[C@@H]2c3cc(NC(=O)Nc4ccccc4F)ccc3O[C@@H]2[C@@H](CO)O1 | 6.4 | 2.8
COc1ccc(C#Cc2ccc([C@H]3[C@@H](CO)N4C(=O)CN(C(=O)C5CCOCC5)C[C@H]34)cc2)cc1 | -16.6 | -29.0
C[C@H](CO)N1C[C@H](C)[C@@H](CN(C)Cc2ccncc2)Oc2cc(C#CC3CC3)ccc2S1(=O)=O | u | x
CO[C@@H]1CN(C)C(=O)c2ccc(NC(C)=O)cc2OC[C@@H](C)N(C(=O)NC2CCCCC2)C[C@H]1C | 2.9 | 10.7
COC(=O)C[C@H]1CC[C@H]2[C@@H](COc3ccc(NC(=O)c4ccc(F)cc4)cc3C(=O)N2C)O1 | 17.5 | 15.8
CC(C)NC(=O)N(C)C[C@@H]1Oc2ccc(NC(=O)CCCN(C)C)cc2C(=O)N([C@H](C)CO)C[C@H]1C | 12.8 | 9.5
CC(C)NC(=O)Nc1ccc2c(c1)C(=O)N([C@H](C)CO)C[C@@H](C)[C@H](CN(C)C(=O)Nc1ccccc1)O2 | 13.3 | -4.8
C[C@@H]1CCCCO[C@H](CN(C)C(=O)Nc2ccccc2)[C@@H](C)CN([C@@H](C)CO)C(=O)c2cc(NC(=O)CCCN(C)C)ccc2O1 | 10.2 | 6.0
Cc1noc(C)c1S(=O)(=O)N(C)C[C@H]1Oc2ccc(NC(=O)Cc3cn(C)c4ccccc34)cc2CC(=O)N([C@H](C)CO)C[C@@H]1C | 9.9 | 11.8
O=C(Cc1ccccn1)N1CCCCN2[C@@H](CO)[C@H](c3ccc(-c4ccccc4)cc3)[C@@H]2C1 | -8.5 | -11.3
CN1C[C@H]2[C@@H](c3ccccc31)[C@H](CO)N2C(=O)Nc1ccccc1Cl | 6.1 | 0.4
O=C(C[C@@H]1CC[C@@H]2[C@H](COC[C@@H](O)CN2Cc2cc(F)ccc2F)O1)N1CCc2ccccc2C1 | -20.0 | -14.8
C[C@H](CO)N1C[C@H](C)[C@@H](CN(C)C(=O)Nc2cccc3ccccc23)Oc2ccc(NC(=O)NC3CCCCC3)cc2CC1=O | 1.0 | 8.8
